Source: PubChem BioAssay
Rango-impB inh – qHTS Assay for Inhibitors of Rango (Ran-regulated importin-beta cargo) - Importin beta complex formation; Rango CFP/YFP FRET sensor + importin beta, 45 min; Potency, µM (titrated, usually from 92.2 µM), for inactives: at the top dose inhibition of complex formation; 340,000 tested, 0.031% active; AID 540263, 2011; active = rising FRET ratio curve, often small or poorly fitted; inconclusive = mostly compound fluorescence or quenching in the first reads; inactive = flat curves in all reads;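 further: potency means the concentration at half of the fitted maximal effect; 0% = DMSO wells and 100% = buffer wells lacking importin beta; nearly all actives have a fitted effect of over 15% in size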
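Inhibition scored from the CFP 486 nm/YFP 530 nm FRET ratio 45 min after adding 0.125 microM importin beta to 50 nM Rango biosensor preincubated 5 min with compound (room temperature, PBS with DTT, Tween-20, BSA). No-importin wells as positive control.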
GLA inh pH 4.5 – qHTS Assay for Inhibitors of Human alpha-Galactosidase at pH 4.5. purified enzyme, 4-MU-alpha-Gal fluorescence, pH 4.5. activity change, negative = inhibition, % at 105 µM. 230,000 tested, under 10 active. AID 1467, 2008; inconclusive = small, poorly fitted or top-dose-only inhibition, or a rising curve; inactive = flat fitted curve, though single readings scatter; no compound was filed as active;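 further: 0% = full activity with enzyme and -100% = basal without enzyme; dose as in the result columns while the protocol names 77 µM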
Target sequence (P06280 whole entry, looked up): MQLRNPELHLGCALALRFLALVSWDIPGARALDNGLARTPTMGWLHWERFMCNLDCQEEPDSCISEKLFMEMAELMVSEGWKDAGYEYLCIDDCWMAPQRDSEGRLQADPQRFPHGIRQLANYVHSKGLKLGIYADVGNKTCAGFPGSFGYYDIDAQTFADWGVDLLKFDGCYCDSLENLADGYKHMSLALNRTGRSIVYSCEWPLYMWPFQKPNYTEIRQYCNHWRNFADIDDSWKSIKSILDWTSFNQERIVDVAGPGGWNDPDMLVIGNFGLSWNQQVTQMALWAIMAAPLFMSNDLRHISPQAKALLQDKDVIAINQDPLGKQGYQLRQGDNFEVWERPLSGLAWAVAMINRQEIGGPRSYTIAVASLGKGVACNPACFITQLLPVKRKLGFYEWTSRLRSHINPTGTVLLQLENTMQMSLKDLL
miR-21 FLuc – qHTS Assay for Modulators of miRNAs and/orActivators of miR-21 | Potency, µM (doses to about 38.3 µM), for inactives: top-dose reporter change, positive = more light | 340,000 tested, under 10 active | HeLa miR-21 FLuc reporter, luciferase, 48 h; active = well fitted rising curve with a large enough effect; inconclusive = small, poorly fitted or top-dose-only effect; inactive = no such curve, though single readings can be large or run the other way;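 further: % of control where 0% means no effect; miR-21 action dims this reporter so a rising signal means less miR-21 action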
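Luminescence from a firefly luciferase reporter carrying a miR-21 binding site downstream, stably expressed under a CMV promoter in HeLa cells that make miR-21 endogenously, reports miRNA modulation after 48 h compound exposure up to approximately 40uM final.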
Rango dissoc inh – qHTS Assay for Inhibitors of RanGTP induced Rango (Ran-regulated importin-beta cargo) - Importin beta complex dissociation; Snurportin-1 (Homo sapiens) + GTP-binding nuclear protein Ran (Homo sapiens) + Importin …; Biochemical FRET Rango-importin beta, RanGTP-induced dissociation; Potency, µM (titrated, usually from 46.1 µM), inactives show top-dose activity change, negative = inhibition; 340,000 tested, 0.071% active; AID 540253, 2011; active means falling FRET ratio curve, often poorly fitted, with flat reads before Ran was added; inconclusive means other falling curves, or compound fluorescence or quenching; inactive means flat or rising ratio curve;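 further: potency means the concentration at half of the fitted maximal effect; % of control where 0% means no effect; nearly all actives have a fitted effect of over 45% in size; -100% = wells without RanGTP and RCC1; the record marks most hits as doubtful in a second field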
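Rango (0.1 uM)–importin beta (0.25 uM) complex; RanGTP-RCC1 trigger; 45 min RT; CFP/YFP FRET read.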
An asterisk follows results filed as active; ? = inconclusive; · = no result given. This is a subset; count on the stated rates, not on these rows.

SMILES	Rango-impB inh	GLA inh pH 4.5	miR-21 FLuc	Rango dissoc inh
COc1ccccc1C(=O)NC1CC(C)(C)NC(C)(C)C1	-0.2%	·	-5%	-11%
O=C(Nc1nccs1)C1CC(=O)N(CCc2ccc(F)cc2)C1 (centres undefined)	-2.6%	·	5%	-1%
O=C(NC1CCCC1)C1CCN(S(=O)(=O)c2cccc3cccnc23)CC1	4.7%	4	0%	0%
CCN(CC)CCCN1C(=O)C2C(C(=O)Nc3ccc(C(C)C)cc3)C3C=CC2(O3)C1C(=O)NC1CCCCC1 (centres undefined)	7.2%	·	0%	-6%
CC12CCC(C(=O)NCc3ccccc3Cl)(CC1=O)C2(C)C (centres undefined)	-0.9%	-6	14%	0%
CCOc1ccc(NC(=O)C/C(C)=N/NC(=O)Cc2cccs2)cc1	-0.6%	·	-8%	-22%
COc1cccc(C(=O)CN2CCN(S(=O)(=O)c3ccc(Br)cc3)CC2)c1	2.9%	2	-3%	-6%
COc1ccc(-c2noc(CCC(=O)NCCN(C)Cc3ccccc3)n2)cc1	7.7%	1	15%	1%
COc1ccc(Cn2c(=O)c3cccnc3n(Cc3ccc([N+](=O)[O-])cc3)c2=O)cc1	0.5%	5	-1%	13%
CC(=O)N1c2ccc(S(=O)(=O)N3CCC(C(=O)Nc4cccc(F)c4)CC3)cc2CC1C (centres undefined)	-1.3%	·	16%	6%
CSc1cccc(NS(=O)(=O)c2cn(C)cn2)c1	0.2%	·	1%	-19%
Cc1onc(-c2ccccc2)c1C(=O)NNC(=S)NC(=O)c1ccc(F)cc1	1.0%	1	-8%	-3%
N#CCNC1CC(=O)N(c2ccc(F)cc2)C1=O (centres undefined)	0.1%	·	2%	8%
Clc1cccc(OCCCN2CCCC2)c1Cl	4.0%	-6	-14%	1%
CCOC(=O)CSc1nc(=O)n2cc(C)ccc2n1	-3.3%	11	-12%	-4%

Next part.
SMILES	Rango-impB inh	GLA inh pH 4.5	miR-21 FLuc	Rango dissoc inh
COc1ccc(N2CCN(C(=O)c3ccccc3)CC2)c([N+](=O)[O-])c1	-1.4%	3	-6%	1%
O=C(NCc1ccc2c(c1)OCO2)c1cccnc1	-1.8%	3	0%	15%
CN(CCOc1ccccc1)CC(=O)Nc1cccc(Br)c1	4.6%	-7	-4%	1%
CCOc1ccc(C2C(C(C)=O)=C(O)C(=O)N2CCc2c[nH]c3ccccc23)cc1 (centres undefined)	-0.2%	2	2%	8%
CSc1nnc(NC(=O)c2ccc3c(c2)OCO3)s1	-1.1%	·	-36%	6%
CC1=NN(c2nc(C)cc(C)n2)C(=O)C1CCC(C)C (centres undefined)	2.7%	-2	-3%	-4%
COc1cc2[nH]c(=S)n(C3CC3)c(=O)c2cc1OC	-1.6%	6	8%	13%
CCN(CC)CCC(c1ccc2c(c1)OCO2)c1c(OC)cc(OC)c2ccc(=O)oc12 (centres undefined)	1.5%	-7	-4%	-15%
COC(=O)CNC(=O)C(C)NC(=O)OCc1ccccc1 (centres undefined)	-2.8%	-3	-9%	?
COc1ccc(C)c2sc(N(CCN(C)C)C(=O)c3ccc4ccccc4c3)nc12	0.2%	·	1%	-6%
CCOC(=O)N/N=C(\C)c1ccc(-n2cnnn2)cc1	-2.3%	1	-4%	-5%
Cc1cs/c(=N\N=C2CCCCC2)n1Cc1ccco1	-1.1%	-1	8%	-14%
N/C(Cc1nc(-c2ccc(Cl)cc2)cs1)=N/O	3.0%	-7	-29%	8%
CN(CC(=O)Nc1ccc(Cl)c(C(F)(F)F)c1)C(=O)Cc1ccsc1	-0.1%	·	·	-9%
NC(=O)c1cccc2c1-c1ccccc1/C2=N/NC(N)=S	2.4%	·	3%	6%

Brought forward from above: seven entries; new compounds follow.
SMILES	Rango-impB inh	GLA inh pH 4.5	miR-21 FLuc	Rango dissoc inh
COC(=O)CNC(=O)C(C)NC(=O)OCc1ccccc1 (centres undefined)	-2.8%	-3	-9%	?
COc1ccc(C)c2sc(N(CCN(C)C)C(=O)c3ccc4ccccc4c3)nc12	0.2%	·	1%	-6%
CCOC(=O)N/N=C(\C)c1ccc(-n2cnnn2)cc1	-2.3%	1	-4%	-5%
Cc1cs/c(=N\N=C2CCCCC2)n1Cc1ccco1	-1.1%	-1	8%	-14%
N/C(Cc1nc(-c2ccc(Cl)cc2)cs1)=N/O	3.0%	-7	-29%	8%
CN(CC(=O)Nc1ccc(Cl)c(C(F)(F)F)c1)C(=O)Cc1ccsc1	-0.1%	·	·	-9%
NC(=O)c1cccc2c1-c1ccccc1/C2=N/NC(N)=S	2.4%	·	3%	6%
CCCCNC(=O)NNC(=O)c1ccco1	0.2%	4	-4%	-4%
Cc1ccc(NC(=O)c2csnn2)c(C)c1	1.8%	7	-27%	-6%
COc1ccccc1NC(=O)N(Cc1cccs1)Cc1cc2cc3c(cc2[nH]c1=O)OCO3	1.9%	1	20%	-3%
CCOC(=O)N1CCN(c2nc3ccccc3nc2C(C#N)S(=O)(=O)c2ccc(C)cc2)CC1 (centres undefined)	?	5	-10%	?
COc1ccc(/C=N/NC(=O)c2csc(-n3nc(C)cc3C(F)(F)F)n2)cc1	-4.5%	0	-5%	6%
Cc1ccc(C(=O)N2N=C(c3ccccc3)CC2(O)C(F)(F)F)o1 (centres undefined)	3.3%	2	-3%	6%
COc1cc(C)c(C2NC(=O)c3ccccc3N2)cc1C (centres undefined)	-3.3%	·	·	1%
CSC(=CC(=O)c1ccc(F)cc1)SC	-2.7%	0	-25%	-15%
COc1cc(C2NC(=S)NC3=C2C(=O)CCC3)ccc1O (centres undefined)	3.5%	·	1%	50%
O=C(CCc1ccccc1)NCCS(=O)(=O)N1CCN(c2ccccc2)CC1	-1.5%	·	·	-14%
CCOC(=O)c1ccc2c(c1)n(CC)c(C)[n+]2CC	-1.5%	0	0%	11%
COc1ccc(S(=O)(=O)Nc2ccccc2C(=O)N2CCCC2)cc1OC	1.7%	5	2%	8%
CN(C)CCNC(=O)COc1ccc(Cl)cc1Cl	6.3%	3	-12%	-12%
COC(=O)CN(c1ccccc1)S(=O)(=O)c1cc(Br)ccc1OC	1.7%	1	0%	1%
COc1ccc(NC2=C3CCCC=C3N(c3ccc(OC)cc3)C2=O)cc1	5.5%	-1	-14%	20%

Compound profiles (already shown). Values in the order: Rango-impB inh | GLA inh pH 4.5 | miR-21 FLuc | Rango dissoc inh
Results for COc1ccccc1NC(=O)N(Cc1cccs1)Cc1cc2cc3c(cc2[nH]c1=O)OCO3 : 1.9% | 1 | 20% | -3%
Results for O=C(CCc1ccccc1)NCCS(=O)(=O)N1CCN(c2ccccc2)CC1 : -1.5% | · | · | -14%
Results for Cc1ccc(NC(=O)c2csnn2)c(C)c1 : 1.8% | 7 | -27% | -6%
Results for CN(C)CCNC(=O)COc1ccc(Cl)cc1Cl : 6.3% | 3 | -12% | -12%
Results for COc1ccc(NC2=C3CCCC=C3N(c3ccc(OC)cc3)C2=O)cc1 : 5.5% | -1 | -14% | 20%

Other results follow.
SMILES	Rango-impB inh	GLA inh pH 4.5	miR-21 FLuc	Rango dissoc inh
CC(=O)c1ccc(NC(=O)CCCN2C(=O)COc3ccc(C)cc32)cc1	-4.0%	·	-6%	1%
Cc1ccnc(SCc2cc(=O)c(OC(=O)c3ccc(Br)o3)co2)n1	1.7%	6	-18%	-2%
CC(=O)Nc1nc(-c2ccccc2)c(-c2ccccc2)o1	-0.6%	7	-1%	1%
COc1cccc(N2CCN(CC(=O)Nc3nc4c(s3)CC(C)CC4)CC2)c1 (centres undefined)	-1.5%	-5	2%	2%
CC1=NN(c2nc3ccccc3[nH]2)C(=O)C1Cc1ccccc1 (centres undefined)	0.7%	-5	?	-14%
Cc1ccc(Nc2nc(N)nc(CN3CCC(C)CC3)n2)c(C)c1	-3.4%	·	·	29%
CCCCC1CCC(C(=O)N(C)CC(=O)Nc2cccc(OC)c2)CC1 (centres undefined)	0.1%	·	·	-1%
O=C(Cn1nc(C(F)(F)F)c2c1CCC2)NCc1ccc(F)cc1	6.3%	-1	0%	15%
CC1=NN(c2ccc(Cl)c(C(=O)O)c2)C(=O)/C1=C/c1ccc(-c2ccccc2[N+](=O)[O-])o1	0.8%	·	-3%	-9%
COc1cccc(/C=C2\SC(=S)N(CC3CCCO3)C2=O)c1 (centres undefined)	5.0%	-3	-13%	-16%
O=C(NCc1nnc(SCC(=O)N2CCN(c3ccccc3)CC2)o1)c1ccc(F)cc1	-2.5%	·	-3%	-1%
CC1CCCC(NC(=O)CSc2n[nH]c(N)n2)C1C (centres undefined)	-1.7%	·	·	15%
O=C(CN1C(=O)NC2(CCc3ccccc32)C1=O)Nc1c(Cl)cccc1Cl (centres undefined)	0.3%	·	·	11%
CCc1ccc(S(=O)(=O)NCCc2cn3ccsc3n2)s1	10%	-7	1%	3%
CCn1cc(C2Nc3ccccc3C(=O)N2O)c(C)n1 (centres undefined)	1.2%	1	-33%	4%

Compounds shown so far containing a cyano group:
SMILES	Rango-impB inh	GLA inh pH 4.5	miR-21 FLuc	Rango dissoc inh
N#CCNC1CC(=O)N(c2ccc(F)cc2)C1=O (centres undefined)	0.1%	·	2%	8%
CCOC(=O)N1CCN(c2nc3ccccc3nc2C(C#N)S(=O)(=O)c2ccc(C)cc2)CC1 (centres undefined)	?	5	-10%	?

Carrying on.
SMILES	Rango-impB inh	GLA inh pH 4.5	miR-21 FLuc	Rango dissoc inh
O=c1c2ccccc2nc(SCc2nc(-c3ccccc3)no2)n1-c1ccc(F)cc1	-4.5%	-2	-2%	-7%
CC(OC(=O)Cc1c[nH]c2ccccc12)C(=O)NC1CCCCC1C (centres undefined)	0.1%	·	·	-23%
O=C(C1CCN(S(=O)(=O)N2CCC3(CC2)OCCO3)CC1)N1CCCCC1	0.4%	5	-8%	2%
CCOC(=O)c1sc2ncn(C(CC)C(=O)OCC)c(=O)c2c1C (centres undefined)	0.4%	-4	-14%	7%
Fc1ccc(NC(=S)Nc2ccccc2N2CCOCC2)cc1Cl	-3.7%	1	12%	-13%
COCCCn1c(SCC(=O)NCc2ccco2)nc2sc3c(c2c1=O)CCC3	-2.9%	4	-4%	1%
CCOc1nc(C)ccc1-c1noc(-c2ccccn2)n1	-1.1%	2	-60%	0%
COc1ccccc1-c1nc(SCC(=O)N(C)c2ccccc2)c2c(=O)n(C)c(=O)n(C)c2n1	-1.8%	-3	-3%	13%
CCCCNC(=S)N/N=C/c1ccc(C)s1	-0.7%	6	-50%	-6%
COc1ccc(CCNCC(=O)Nc2ccc(C)c(S(=O)(=O)N(C)C)c2)cc1	7.2%	7	4%	-3%
N[C@@H](Cc1cc(I)c(Oc2cc(I)c(O)c(I)c2)c(I)c1)C(=O)O	2.1%	·	·	1%
COc1ccc(CNC(=O)CCC(=O)Nc2nnc(C(F)(F)F)s2)cc1	?	·	0%	-2%
COc1cc(-c2noc(C)c2C#Cc2ccsc2)cc(OC)c1OC	-1.1%	·	20%	1%
COc1ccc(CNC(=O)C(=O)NCC2OCCCN2S(=O)(=O)c2cccs2)cc1 (centres undefined)	-1.4%	·	-2%	1%

Copied from the list:
Value for CCOC(=O)c1sc2ncn(C(CC)C(=O)OCC)c(=O)c2c1C (centres undefined) in miR-21 FLuc: -14%
Value for Fc1ccc(NC(=S)Nc2ccccc2N2CCOCC2)cc1Cl in Rango dissoc inh: -13%
